# HSD17B inh – inhibitors of human HSD17B10 dehydrogenase; Q99714; recombinant HSD17B10, NADH fluorescence kinetic; many of its hits are not listed in these tables; Potency, µM (highest dose often 57.1 µM), for inactives: at the top dose activity change, negative = inhibition, usual class: inhibitors; 75,000 compounds, 7.6% hits; AID 893; active means well fitted inhibition curve with a large enough effect; inconclusive means small, poorly fitted or top-dose-only effect; inactive means no such curve, though single readings can be large or run the other way;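 further: the protocol describes HADH2 (HSD17B10) and not the HSD17B4 of the title; nearly all actives have a fitted effect of over 70% in size; most hits overshoot -100% by far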
#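 His-tagged E. coli-expressed HADH2 at 20 nM in 100 mM Tris-HCl pH 9.0 with 0.01 % Tween-20, preincubated 15 min with compound at room temperature. Reaction with 1 mM NAD+ and 90 uM beta-hydroxybutyryl coenzyme A; NADH fluorescence (360/450 nm) read kinetically over 4 min, last minus first point.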
# The depositor's hits bear a star; ? = inconclusive; & = joins results of further samples; [ ] = dose if it differs, or a comment. On the % scale 0 is the no-effect control and ±100 the full control effect; potency means the concentration at half of the fitted maximal effect. This is a subset (hit frequency here may not be typical).
SMILES,HSD17B inh
O=C(CSc1nc2ccccc2[nH]1)Nc1ccccc1N1CCOCC1,1%
O=C(c1ccco1)N1CCN(S(=O)(=O)c2ccc3c(c2)OCCO3)CC1,9%
COc1cc2c(cc1OC)-c1cc(=Nc3c(C)cc(C)cc3C)n(C)c(=O)n1CC2,-7%&-12%
O=C(NCCN1Cc2ccccc2C1=O)c1cccs1,2%
O=C(CCN1C(=O)c2cccnc2C1=O)NC1CCCCCC1,6%
Cn1nnc2cc(NC(=O)NCc3ccc4c(c3)OCO4)ccc21,?
CC(C)C(NS(=O)(=O)c1ccc2c(c1)OCCO2)C(=O)NCCc1ccccn1 (stereo not drawn),11%
C=CCN1CC2CC3(COc4cc(C)cc(C)c4)C=CC2(O3)C1=O (stereo not drawn),-12%
Cc1ccc(C(=N)c2ccccc2Cc2cccc3ccccc23)c2ccccc12,12%[11.4 µM]
CCOC(=O)c1nc(N)sc1C(=O)OCC,4%
CCSc1nnc(NC(=O)c2ccco2)s1,-27%
CSc1nc2c(c(=O)[nH]c(=O)n2C)n1C/C=C(\C)Cl,-1%
COCCn1c(SCC(=O)N2CCCc3ccccc32)nc2ccccc2c1=O,-15%
CC1=C(C(=O)Nc2ccccn2)C(c2ccccc2)n2ncnc2N1 (stereo not drawn),-29%
O=S1(=O)C=C(Oc2ccc(F)cc2)c2ccccc21,2%
COc1cc(C(=O)COC(=O)Cc2cnc3sccn23)cc(OC)c1OC,-2%
O=c1c2ccccc2nc(-c2ccoc2)n1CCc1ccccc1,?
C[C@@H](C(=O)N[C@@H](CO)Cc1ccccc1)[C@H]1C[C@]1(C)[C@H](NC(=O)OCc1ccccc1)c1ccccc1,5%
Cc1noc(C)c1COC(=O)c1cc2c(C)nn(-c3ccc(F)cc3)c2s1,-7%
Cc1ccc2c(c1)N(CC(=O)NCCc1c[nH]c3ccccc13)C(=O)CO2,6%
COc1ccc(-n2c(=O)c(-c3cn(C)c4ccccc34)nc3cnc(OC)nc32)cc1,?
CCOC(=O)N1CCN(C(=O)c2ccc3nc4cc(Cl)ccc4c(=O)n3c2)CC1,1µM*
Cc1ccc(NC(=O)Cc2cn3ccsc3n2)nc1,3%
COc1cc(/C=C(\C#N)C(N)=O)cc(CSc2nc3ccccc3s2)c1O,?
CC1(C)CC2CC(C)(CN2C(=O)c2cccs2)C1 (stereo not drawn),-2%
O=CNc1ccccc1Oc1ccccc1,3%
O=C(CSc1ncnc2sc3c(c12)CCCC3)c1ccco1,-22%
OCCN1CCN(c2ncnc3nc[nH]c23)CC1,-1%
COc1ccc(S(=O)(=O)N(Cc2ccccc2)Cc2nc(-c3ccccc3)no2)cc1,1%
O=C(Oc1ccc2c(c1)OCO2)c1cc2c(s1)CCC2,16µM*
COc1ccc(OC)c(NC(=O)c2cc(-c3ccc(C)cc3O)n[nH]2)c1,-5%
COc1ccccc1NC(=O)C1=C(C)NC2=C(C(=O)CCC2)C1c1ccc(C)o1 (stereo not drawn),-9%
CCCS(=O)(=O)N1CCC(C(=O)N2CCC(Cc3ccccc3)CC2)CC1,0%
CC(=O)N1[C@H](Cc2ccccc2)C=C[C@]1(C)C(=O)NCc1ccccn1,6%
CC(C)CC(OC(=O)c1ccco1)C(=O)NCC1CCCO1 (stereo not drawn),6%
CCOc1ccccc1CN(CCc1ccc2c(c1)OCO2)Cc1ccccn1,-2%
CCCC/C=C/C(NC(=O)c1cccs1)c1ccccc1 (stereo not drawn),-9%
CN(C)Cc1cc(C(C)(C)C)cc(CNC2CCCCC2)c1O,3%[11.4 µM]
c1cc(-c2noc(CC3CCCCC3)n2)ccn1,11%
COCCCNC(=O)c1cccc(OC)c1OC,7%
O=S1(=O)CCN(c2ccccc2CC(c2c[nH]c3ccccc23)c2c[nH]c3ccccc23)CC1,-2%[11.4 µM]
C[C@@H](CCC[C@@H]1SC[C@H]2NC(=O)N[C@H]12)C(=O)O,3%[11.4 µM]
CC(=NCCN1CCOCC1)C1=C(O)c2ccccc2C1=O,8%
COc1cccc(OCc2nnc(SC)n2C)c1,9%
CC1CN(C(=O)c2cccc(S(=O)(=O)N3CCOCC3)c2)CC(C)O1 (stereo not drawn),10%
CCOC(=O)C1CCN(S(=O)(=O)Cc2ccc(Cl)cc2)CC1,4%
CCCc1cc(C(=O)Nc2nnc(C)s2)cs1,3%
N#CCCCSc1nnnn1-c1cccc(Cl)c1,0%
O=C(NCCCN1CCN(c2ccccc2F)CC1)C1CCC(=O)N1C1CCCC1 (stereo not drawn),4%
Cc1cc(Cl)c(S(=O)(=O)Nc2ccccn2)cc1OCC(N)=O,0%
COc1ccc(C(=O)Oc2ccc(C(C)=O)cc2)c(OC)c1,3%
COC(=O)c1c(-c2cccs2)csc1NC(=O)c1cccnc1,-17%
COc1ccc(Cl)cc1NC(=O)COC(=O)CCNC(C)=O,-3%
CCC1=C2CC[C@H]3C(=O)N(CC)C(=O)[C@H]3[C@H]2[C@@]2(Cc3ccccc3)C(=NCc3ccccc3)OC(=O)N2C1=O,3%
COc1cccc(CC(NC(C)=O)C(=O)NC2CCN(c3nc(C)cc(C)c3C#N)CC2)c1OC (stereo not drawn),25µM*
COc1ccccc1N1CCN(C(=O)c2cc3cc(Br)ccc3oc2=O)CC1,0%
Cc1c(/C(O)=C2/C(=O)C(=O)N(CCN3CCOCC3)C2c2cccs2)cnn1-c1ccccc1 (stereo not drawn),-13%
CC(C)NC(=O)CN(CCc1ccccc1)S(C)(=O)=O,8%
CC(=O)NC1C(O)C[C@@](O)(C(=O)O)OC1[C@@H](O)C(O)CO (stereo partly drawn),2%
Clc1cccc(CSc2nnc(-c3ccccn3)n2Cc2ccco2)c1,-1%
# Further results
SMILES,HSD17B inh
COc1ccc2ccccc2c1CN1CCN(C(=O)c2ccccc2)CC1,134%[activator]
CCOc1ccc(NC(=O)CSc2nnnn2CC(=O)O)cc1,10%
Cc1csc2c(=O)n3c(nc12)CCCCC3,9%
CC(C)C1C(C#N)=C(N)Oc2n[nH]c(-c3ccccc3)c21 (stereo not drawn),-5%
CCCOc1ccc(C2C(C(=O)c3ccc(C)o3)=C(O)C(=O)N2Cc2cccnc2)cc1 (stereo not drawn),2%
COc1ccccc1OCCSc1nnnn1-c1ccc(C)cc1,-1%
Cc1ccc(P(=O)(CC(=O)O)c2ccc(C)cc2)cc1,13%
COC(=O)[C@@]1(Cc2ccc(OC)cc2)[C@H]2c3cc(C(=O)N(C)C)n(Cc4c(CO)[nH]cc(C)c4=O)c3C[C@H]2CN1C(=O)c1ccccc1,8%
COc1ccc(S(=O)(=O)N(CC(=O)N2CCN(C)CC2)c2ccccc2)cc1OC,9%
O=C(CN1CCOCC1)N1CCc2ccccc2C(c2ccccc2)C1 (stereo not drawn),10%
O=C(Cn1c(=O)oc2ccccc21)Nc1ccc2c(c1)OCCO2,5%
O=c1c2ccccc2c2ccccc2c(=O)n1CC1CCCO1 (stereo not drawn),-2%
CCOC(=O)C1=C(C)N(C)C(C)=C(C(=O)OCC)C1c1cccnc1,-1%
CCCC(=O)Nc1ccc(NC(=O)C2CC2)cn1,7%
COc1ccc(OC)c(C2=NO[C@@H]3C(=O)N(c4cc(Cl)ccc4OC)C(=O)[C@H]23)c1,?
O=C(Nc1nnc(C2CC2)s1)C1Cc2ccccc2CN1S(=O)(=O)c1cccs1 (stereo not drawn),?
COCCNC(=O)C(C)N(c1ccc(Oc2ccccc2)cc1)S(C)(=O)=O (stereo not drawn),10%
CN1CCN(c2nc3c(c(=O)[nH]c(=O)n3C)n2CCSc2nc3ccccc3s2)CC1,2%
O[C@@H]1[C@@H]2c3cc4c(cc3CN3CCC(=C[C@@H]1O)[C@H]23)OCO4,6%[25.6 µM]
COc1cccc([C@@H]2Oc3ccc(OC)cc3/C(=N/O[C@@H](C)c3cc(-c4c(C)cc(C)cc4C)no3)[C@@H]2O)c1,-4%[11.4 µM]

# Compounds above with a cyano group (4):
SMILES,HSD17B inh
COc1cc(/C=C(\C#N)C(N)=O)cc(CSc2nc3ccccc3s2)c1O,?
N#CCCCSc1nnnn1-c1cccc(Cl)c1,0%
COc1cccc(CC(NC(C)=O)C(=O)NC2CCN(c3nc(C)cc(C)c3C#N)CC2)c1OC (stereo not drawn),25µM*
CC(C)C1C(C#N)=C(N)Oc2n[nH]c(-c3ccccc3)c21 (stereo not drawn),-5%

# 5 entries drawn at random from those above, as already listed:
SMILES,HSD17B inh
O=C(Cn1c(=O)oc2ccccc21)Nc1ccc2c(c1)OCCO2,5%
COc1ccc(OC)c(C2=NO[C@@H]3C(=O)N(c4cc(Cl)ccc4OC)C(=O)[C@H]23)c1,?
Cc1ccc(P(=O)(CC(=O)O)c2ccc(C)cc2)cc1,13%
COc1cccc([C@@H]2Oc3ccc(OC)cc3/C(=N/O[C@@H](C)c3cc(-c4c(C)cc(C)cc4C)no3)[C@@H]2O)c1,-4%[11.4 µM]
COc1ccc(S(=O)(=O)N(CC(=O)N2CCN(C)CC2)c2ccccc2)cc1OC,9%

# Next part:
SMILES,HSD17B inh
CC1CCN(c2nc3c(c(=O)n(C)c(=O)n3C)n2Cc2ccccc2)CC1,-4%
Cc1onc(-c2c(Cl)cccc2Cl)c1C(=O)NCCCN1CCOCC1,10%
Cc1ccc(C(=O)Nc2ccc(S(=O)(=O)N3CCc4ccccc43)cc2)o1,-13%
O=C(Nc1ccc(O)cc1)C1CC=CCC1 (stereo not drawn),-20%
Cc1nn(CC(=O)O)c(C)c1C,-3%
COCc1nnc(SCC(=O)Nc2cccc(Cl)c2C)n1-c1ccccc1,3%
Cc1cc(C(=O)N2CCN(c3ncccn3)CC2)cs1,5%
O=C(O)c1ccc(C2SCC(=O)N2Cc2ccccc2)cc1 (stereo not drawn),9%
CC(NC(=O)COc1ccccc1)C1COc2ccccc2O1 (stereo not drawn),-13%
CCOC(=O)c1cnc(SCC(=O)Nc2ccc(NC(C)=O)c(OC)c2)nc1N,-4%
CCOC(=O)C12CNC(=O)C(C(=O)OCC)(CNC1=O)C2,7%
COc1ccc(Cn2nnnc2C(c2cc(OC)ccc2OC)N2CCC(C(N)=O)CC2)cc1 (stereo not drawn),7%
COc1ccc([C@H](O)c2ccccn2)cc1,-1%[11.4 µM]
O=C(NC1CCCC1)C(c1cccs1)N(Cc1ccco1)C(=O)Cn1nnc(-c2cccs2)n1 (stereo not drawn),1%
COc1cccc(NC(=O)CN2CCN(S(=O)(=O)c3ccc(C(C)C)cc3)CC2)c1,-4%
CCOC(=O)c1c(COC(=O)c2ccco2)nc2ccccc2[n+]1[O-],6%
CCC[C@H]1C(=O)N2C(N(C)C)=Nc3ccc(C)cc3N2C1=O,2%[25.6 µM]
O=C(CC1c2ccccc2Oc2ccccc21)N1CCN(c2ccccn2)CC1,?
O=C(NCC1CCCO1)c1ccccc1-c1nc(-c2ccc(F)cc2)no1 (stereo not drawn),4%
COc1cccc(-c2nc(CS(=O)(=O)CC(=O)Nc3cc(C)ccc3C)c(C)o2)c1,?
O=C1Nc2cc3c(cc2Sc2ccccc21)OCCO3,-4%
Cc1ccccc1-n1c(=O)cc(NCC2CCCO2)[nH]c1=O (stereo not drawn),1%
COc1ccc2c(c1OC)C(=O)N(c1ncn[nH]1)C2,32µM*
Brc1ccc(OCCn2ccnc2)cc1,-7%
CCOc1ccc(NC(=O)c2ccccc2CO)cc1,-2%
COc1cccc2c(=O)c(C(=O)NCc3cccs3)c[nH]c12,25µM*
COc1ccc(CNc2cc(-c3cccc(C#N)c3)ncn2)c(OC)c1,3%
O=C(CSc1nnc(-c2ccc(O)cc2)n1Cc1ccco1)N1CCc2ccccc2C1,-9%
O=C(NCCCN1CCN(Cc2ccccc2)CC1)C1CCN(S(=O)(=O)N2CCCC2)CC1,3%
c1cnc(-c2nnc3n2CCCCC3)cn1,1%
COc1ccc(-c2nnc(SCC#CCO)o2)cc1OC,?
CCOC(=O)CSc1nnc(CNC(=O)c2ccc(OC)cc2OC)n1C,-8%
COc1ccc(C)cc1S(=O)(=O)N(CC(=O)N1CCOCC1)Cc1ccccc1,-1%
O=C(NCc1ccccn1)c1c(O)c2cccc3c2n(c1=O)CC3,1%
CCC(Oc1ccc2ccccc2c1)C(=O)O (stereo not drawn),-1%
c1cnc(N2CCSCC2)nc1,7%
CN(C1CCCCC1)S(=O)(=O)c1ccccc1,-1%
Cc1ccc(N[C@H](c2ccccc2)c2ccc3cccnc3c2O)cc1,-5%[11.4 µM]
COc1ccc(CNC(=O)c2ccc3nccnc3c2)cc1,-8%
COC(=O)c1ccc(CSc2nc(C)nc3c2c(=O)n(C)c(=O)n3C)o1,13%

# In a second layout: results already given.
Structure: c1cnc(N2CCSCC2)nc1
  HSD17B inh: 7%

Structure: CN(C1CCCCC1)S(=O)(=O)c1ccccc1
  HSD17B inh: -1%

Structure: Cc1ccc(N[C@H](c2ccccc2)c2ccc3cccnc3c2O)cc1
  HSD17B inh: -5%[11.4 µM]

Structure: COc1ccc(CNC(=O)c2ccc3nccnc3c2)cc1
  HSD17B inh: -8%

# The results go on.
SMILES,HSD17B inh
COc1cc(NC(=O)Cc2nn(C)c(=O)c3ccccc23)cc(OC)c1,6%
O=C(Cn1cc2c(n1)CCCCC2)N1CCCCC1,6%
COc1ccc(-c2[nH]c(-c3ccc(F)cc3)nc2SCC(=O)NCc2ccco2)cc1OC,-18%
COc1cccc(CNC(=O)C2CCN(C(=O)N(C)C)CC2)c1,13%
O=C(CCCC(=O)n1cnc2ccccc21)n1cnc2ccccc21,-11%
COc1ccc(OC)c(-n2nnnc2SCC(=O)NCc2ccc3c(c2)OCO3)c1,5%
CC(C)(C)NCC1(CO)SC(N)=NC1=O (stereo not drawn),3%
CCOC(=O)C1=C(C)NC(=O)NC1c1cn(-c2ccccc2)nc1-c1cccs1 (stereo not drawn),-21%
